From PubChem
NPR1 antag – blocks ANP-stimulated signaling of human Npr1 receptor; HEK293 hNpr1 GloSensor cGMP, ANP-stimulated luminescence; P16066; AID 1347048; Potency, µM (titrated, usually from 46.3 µM), without a hit: at the highest dose activity change, negative = inhibition, hits mostly inhibitors; 76,000 tested, 1.6% active; active = well fitted inhibition curve with a large enough effect; inconclusive = small, poorly fitted or top-dose-only effect; inactive = no such curve, though single readings can be large or run the other way;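 also: nearly all actives have a fitted effect of over 60% in size; nearly all hits also lower the signal before the agonist is added; a reference antagonist and vehicle were the controls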
Target sequence (P16066 whole entry, looked up): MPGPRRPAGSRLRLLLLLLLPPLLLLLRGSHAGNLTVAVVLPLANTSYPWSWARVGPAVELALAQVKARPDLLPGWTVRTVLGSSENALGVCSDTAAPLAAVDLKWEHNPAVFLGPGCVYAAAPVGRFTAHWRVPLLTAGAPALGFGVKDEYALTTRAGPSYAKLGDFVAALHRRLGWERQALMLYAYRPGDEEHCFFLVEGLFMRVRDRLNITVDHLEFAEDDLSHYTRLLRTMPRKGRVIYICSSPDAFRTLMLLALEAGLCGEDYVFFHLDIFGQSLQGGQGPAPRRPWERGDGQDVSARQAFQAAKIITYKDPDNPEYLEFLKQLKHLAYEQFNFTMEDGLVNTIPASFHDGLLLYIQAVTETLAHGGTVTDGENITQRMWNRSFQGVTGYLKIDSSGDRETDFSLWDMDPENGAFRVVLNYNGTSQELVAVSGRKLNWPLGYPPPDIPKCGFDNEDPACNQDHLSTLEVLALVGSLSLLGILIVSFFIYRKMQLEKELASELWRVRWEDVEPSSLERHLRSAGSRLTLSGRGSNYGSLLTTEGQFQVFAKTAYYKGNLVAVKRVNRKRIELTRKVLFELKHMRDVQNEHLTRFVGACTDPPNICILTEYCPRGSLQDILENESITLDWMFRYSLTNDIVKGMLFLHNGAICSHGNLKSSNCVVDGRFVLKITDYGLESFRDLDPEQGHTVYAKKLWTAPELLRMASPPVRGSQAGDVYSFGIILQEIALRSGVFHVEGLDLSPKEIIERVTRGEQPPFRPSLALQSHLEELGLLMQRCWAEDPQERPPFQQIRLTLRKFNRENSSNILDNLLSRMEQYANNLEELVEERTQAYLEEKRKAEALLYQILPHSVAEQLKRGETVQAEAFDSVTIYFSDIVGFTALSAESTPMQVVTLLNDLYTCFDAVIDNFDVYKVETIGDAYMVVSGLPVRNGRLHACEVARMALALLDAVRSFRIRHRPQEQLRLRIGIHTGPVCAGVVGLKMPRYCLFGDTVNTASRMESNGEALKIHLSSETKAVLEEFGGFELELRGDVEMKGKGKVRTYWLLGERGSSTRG
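HEK293 cells stably expressing human Npr1 and cGMP GloSensor pGS-40F, loaded 2 h with 2% GloSensor reagent, given compound 30 min at room temperature. Luminescence read before and 20 min after 0.1 nM hNppA.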
Active calls of the source: *; [ ] = another dose, or the depositor's remark. % is scaled to controls: 0 for no effect and ±100 for the full control effect; potency is read from the fitted curve at half-maximal effect.

`CN1[C@@H](CCC(=O)NCc2cccnc2)CNC(=O)[C@@H]2[C@H]1CCN2Cc1cccc(OC(F)(F)F)c1` gave NPR1 antag 3%.
For C[C@@H]1CN(C(=O)c2ccc(F)cc2F)CC[C@@]1(O)C1CCOCC1 the results were NPR1 antag 0%.
For Cc1cnc(CCNS(=O)(=O)c2ccc(C#N)cc2)n1C1CC1 the results were NPR1 antag -13%.
`CN(c1ccccc1)c1cc(=O)c2ccnc(-c3cncnc3)c2o1` gave NPR1 antag 7%[70.6 µM].
`O=C(Nc1cccc(F)c1)N1C[C@@H]2C[C@H](C1)c1c(-c3cc4ccccc4s3)ccc(=O)n1C2` gave NPR1 antag -5%.
For CN(C)C(=O)c1ccc(OC2CCN(C(=O)c3ccoc3)CC2)nc1 the results were NPR1 antag 1%.
`CN(C1CCc2nn(CC3CC3)c(=O)n2CC1)S(=O)(=O)Cc1ccccc1` (stereo unspecified) gave NPR1 antag -5%.
Screening N[C@H]1CN(c2cncc(C(=O)N3CCCCC3)n2)C[C@@H]1C1CC1 returned NPR1 antag 5%.
For COc1ccccc1CC(=O)NC1CCN(c2cc(C(F)(F)F)ncn2)CC1 the results were NPR1 antag inconclusive.
`Cc1noc(C)c1S(=O)(=O)N1CCC2(CC1)N(CC1CC1)C(=O)CS2=O` (stereo unspecified) gave NPR1 antag 3%.
For COc1cccc(CNC(=O)N2CCC(C3CCN(C(C)=O)CC3)C2)c1 (stereo unspecified) the results were NPR1 antag 2%.
Screening COc1ccc(NC(=O)N2CCc3c(C(=O)NCCCN(C)C)cccc32)cc1 returned NPR1 antag -1%.
Screening O=C(c1cc2cccnn2n1)N1CCOCC1 returned NPR1 antag 0%[70.6 µM].
`COc1ccc(-c2nn(-c3ccccc3)cc2CN2CCN(C)CC2)c(F)c1` gave NPR1 antag 8%.
For CCCN1C(=O)Cc2ccccc2C1C(=O)NCc1ccccc1Cl (stereo unspecified) the results were NPR1 antag -19%.
For O=c1n(CC2CC2)nc2n1CCN(S(=O)(=O)c1cnc[nH]1)CC2 the results were NPR1 antag -1%.
COc1ccc(Cl)cc1C(=O)NCc1nnc2ccc(-c3ccc(C)c(C)c3)nn12 was read as NPR1 antag 1%.
Screening COCCn1nc2n(c1=O)CCN(C(=O)c1ocnc1C)CC2 returned NPR1 antag 0%.
For O=C(NCCCn1nccc1C1CC1)c1ccccc1C1CCNC1 (stereo unspecified) the results were NPR1 antag -1%.
`Cc1ccc(Cn2c(C3CCN(C(=O)Cc4ccccc4)CC3)n[nH]c2=O)cc1` gave NPR1 antag 5%.
For CCCc1cc(C(=O)N2CC[C@@H]3[C@@H](CCC(=O)N3CC(C)C)C2)ccn1 the results were NPR1 antag 0%.
For CC(C)NC(=O)N(C1CC1)C1CCOC2(CCN(C(=O)C3CCCC3)CC2)C1 (stereo unspecified) the results were NPR1 antag -2%.
Cc1ccsc1C(=O)NCC1(C)CCOCC1 was read as NPR1 antag 5%.
COc1cccc(COC2CN(C(=O)CCc3scnc3C)CC(=O)N(Cc3ccccn3)C2)c1 (stereo unspecified) was read as NPR1 antag 5%.
Screening O=C(c1nc2c(o1)CCN(Cc1cc(F)ccc1F)CC2)N1CCOCC1 returned NPR1 antag 1%[70.6 µM].
For F[C@@H]1CN(C2CCOCC2)C[C@@H]1OCc1nc2ccccc2[nH]1 the results were NPR1 antag 0%[70.6 µM].
Cc1ccc(CNC(=O)[C@H]2CN(Cc3ccccc3)C[C@H]2C(=O)O)o1 was read as NPR1 antag -17%.
Screening Cc1ccc(NC(=O)Nc2ccccc2)c(=O)n1CC(=O)NCC1CCCO1 (stereo unspecified) returned NPR1 antag -13%.
CSc1cccc(NC(=O)c2cc3c(N4CCCC4)nc(C)cn3n2)c1 was read as NPR1 antag 6%.
CC1=C[C@@H](CNC(=O)CCC(=O)O)[C@H](C(C)C)C[C@H]1Cc1nc2ccccc2[nH]1 was read as NPR1 antag -6%[70.6 µM].
Screening O=C(CCC1CCCC1)N1CCCC(CN2CCCC2)CC1 (stereo unspecified) returned NPR1 antag -25%.
`O=C(NCc1cccc(F)c1)c1c(OCC2CC2)cc(=O)n2c1CCCCC2` gave NPR1 antag 2%.
For COc1ccc2[nH]c(=O)c(CCC(=O)N3CCN(c4ccccn4)CC3)cc2c1 the results were NPR1 antag 5%.
Screening O=C(c1ccc(F)cc1F)N1CCN(c2cc(-c3ccc(F)cc3)[nH]n2)CC1 returned NPR1 antag inconclusive.
Screening CS(=O)(=O)N1CCc2ccc(C(=O)Nc3ccc(F)cc3Cl)cc21 returned NPR1 antag 0%.
Cc1cc(C(=O)N2CCCCCCNC(=O)[C@@H]3C[C@@H](c4nc(-c5cccnc5)no4)C[C@@H]32)nn1C was read as NPR1 antag 0%.
CN(C)CCNC(=O)c1nc2nc(-c3ccccc3)c(Nc3ccc(F)cc3)cc2n1C was read as NPR1 antag 2%[70.6 µM].
Screening CCOc1ccc(C(=O)N2CCC[C@H]2c2nc(-c3ccc(OC)cc3)no2)cc1OCC returned NPR1 antag -11%.
CCc1nc2c(c(-c3ccc(O)cc3)n1)CCN(Cc1ccccn1)CC2 was read as NPR1 antag 6%.
For O=C(NCCc1nccc(-c2ccccc2)n1)C1NCCc2[nH]cnc21 (stereo unspecified) the results were NPR1 antag 5%.
For CC(C)(Oc1nn(CC2CC2)c2ccc(CN3CCCC3)cc12)C(=O)NCC(F)(F)F the results were NPR1 antag -3%[70.6 µM].
For COCCNC(=O)C1CCCN(c2nc3ncccc3o2)C1 (stereo unspecified) the results were NPR1 antag 2%[70.6 µM].
For Cn1cnc(S(=O)(=O)N2CCCN(CC3CCCCC3)CCNC(=O)CC2c2ccccc2)c1 (stereo unspecified) the results were NPR1 antag -2%.
Screening O=C1CCN(C(=O)c2ccc3ccccc3n2)CCOCCN1 returned NPR1 antag -2%.
Screening O=C(c1ccno1)N1CCN2C(=O)N(Cc3cccnc3)C[C@H]2C1 returned NPR1 antag 6%[70.6 µM].
Screening N#Cc1cccc(C(=O)N2CCOCCNC(=O)CC2)c1 returned NPR1 antag -8%.
`CC(C)CNC(=O)N(C)CC1CCOCC1` gave NPR1 antag 6%.
Screening CN(CC1(CO)CCOCC1)C(=O)c1cc(COc2ccccc2)[nH]n1 returned NPR1 antag 7%.
For CC(c1cccs1)N(C)C(=O)Cc1ccccn1 (stereo unspecified) the results were NPR1 antag 0%[70.6 µM].
`COc1ccc(CCC(=O)N2CCC3(CC2)NCCc2c3[nH]c3ccc(OC)cc23)cc1` gave NPR1 antag 1%.
`COCCc1noc([C@@H]2CN(Cc3cccc(OC)n3)C[C@H]2CO)n1` gave NPR1 antag -10%.
For Cc1ccc(NC(=O)N[C@@H]2C=C(C(=O)N[C@H](Cc3ccccc3)C(N)=O)C[C@@H](O)[C@@H]2O)cc1 the results were NPR1 antag 3%.
For CN1CCCCCCN(C(=O)c2ccsc2)[C@H]2CCC[C@H]2C1=O the results were NPR1 antag 4%.
CCOc1ccc(CC(=O)N2CCC(Cc3nc(-c4ccccc4)no3)CC2)cc1 was read as NPR1 antag 16µM*.
For COCCOCc1nc(C2CCCCN2C(=O)c2ccncc2)no1 (stereo unspecified) the results were NPR1 antag -5%.
Screening COCCCNC(=O)C(NC(=O)c1ccccc1C)C1CCN(C(=O)c2cccs2)CC1 (stereo unspecified) returned NPR1 antag 1%.
`CCN(CC)C(=O)[C@@H]1CCC[C@@H](NCc2nccs2)CN(C)C(=O)C1` gave NPR1 antag -1%[70.6 µM].
Screening O=C(O)CCC1CCN(C(=O)c2ccccc2F)CC1 returned NPR1 antag -1%.
Cc1cccc(NC(=O)C2CCN(C(=O)c3ncn4c3COC(c3ccc(F)cc3)C4)CC2)c1C (stereo unspecified) was read as NPR1 antag -2%.
For COc1ccccc1-c1cc(-c2cn[nH]c2)c2onc(C)c2n1 the results were NPR1 antag 4%[70.6 µM].
For CC(=O)N1CCCN(CC[C@H]2CN(C(=O)c3ccnc(Cl)c3)CC[C@H]2CC(=O)O)CC1 the results were NPR1 antag 3%.
`O=S(=O)(c1ccccc1)N1CCC(n2cnnc2C2CC2)CC1` gave NPR1 antag -3%.
`COCCOC1CCN(C(=O)Nc2ccc(OC)cc2)CC1` gave NPR1 antag 0%.
For Cn1cccc1CN1CCC2(CC1)CNc1ccccc1[S+](=O)([O-])N2 the results were NPR1 antag 10%.
Screening O=C(NC1CC1)[C@@H]1C[C@H](Oc2cccnc2)CN1C(=O)CCC1CCCC1 returned NPR1 antag -1%.
For CC(Oc1ccccc1)C(=O)NCCc1noc(-c2ccncc2)n1 (stereo unspecified) the results were NPR1 antag -3%.
COc1ccc(CCNC(=O)CC(c2cccc3c2OCO3)c2c[nH]c3ccccc23)cc1OC (stereo unspecified) was read as NPR1 antag -2%.
Screening O=C(NCc1nnc2cc(-c3nc(C4CC4)no3)ccn12)c1ccoc1 returned NPR1 antag 3%.
COCc1ncc(C)n1CCNC(=O)c1cc(-c2cc(C)ccc2C)n[nH]1 was read as NPR1 antag 0%.
For COc1cc2c(cc1CNC(=O)C1CC(=O)N(Cc3cccnc3)C1)CCC2 (stereo unspecified) the results were NPR1 antag 4%.
Screening Cc1cccc(OCCc2noc(C3CCCCN3C(=O)c3ccc(C)nc3)n2)c1 (stereo unspecified) returned NPR1 antag 0%.
`CCc1ccccc1S(=O)(=O)N1CCC(n2cnnc2C(C)C)CC1` gave NPR1 antag 3%.
CCC(=O)Nc1ccc(-c2nnc3n2CCCC3)cc1 was read as NPR1 antag -1%.
For CC(C)c1noc(-c2cn(C3CCN(C(=O)Cc4ccc(Br)cc4)C3)nn2)n1 (stereo unspecified) the results were NPR1 antag 0%.
`N#Cc1cccc(NC(=O)COc2ccc(-c3nnc4n3CCCC4)cc2)c1` gave NPR1 antag -11%.
Screening O=c1n(-c2ccncc2)nc2n1CCN(Cc1ccccc1)C2 returned NPR1 antag -27%[70.6 µM].
`N#Cc1ccc(CN2C[C@@H](CO)[C@H](c3ccccn3)C2)cc1` gave NPR1 antag 4%.
Screening COc1nc2c(cc1CNC(=O)CC1CCC(=O)N1)C(=O)N(C1CCCC1)C2 (stereo unspecified) returned NPR1 antag -7%.
`O=C(c1ccncc1)N1CCCC(COc2ccccc2C(=O)N2CCCCC2)C1` (stereo unspecified) gave NPR1 antag -2%.
For O=C(NCCN1CCCCC1)c1ccc(N2CC3CC(C2)[C@H]2CCCC(=O)N2C3)nc1 (stereo partly specified) the results were NPR1 antag 5%.

Not a retest: entries from further up.
For Cn1cccc1CN1CCC2(CC1)CNc1ccccc1[S+](=O)([O-])N2 the results were NPR1 antag 10%.
Screening O=C(NC1CC1)[C@@H]1C[C@H](Oc2cccnc2)CN1C(=O)CCC1CCCC1 returned NPR1 antag -1%.
For CC(Oc1ccccc1)C(=O)NCCc1noc(-c2ccncc2)n1 (stereo unspecified) the results were NPR1 antag -3%.
COc1ccc(CCNC(=O)CC(c2cccc3c2OCO3)c2c[nH]c3ccccc23)cc1OC (stereo unspecified) was read as NPR1 antag -2%.
Screening O=C(NCc1nnc2cc(-c3nc(C4CC4)no3)ccn12)c1ccoc1 returned NPR1 antag 3%.
COCc1ncc(C)n1CCNC(=O)c1cc(-c2cc(C)ccc2C)n[nH]1 was read as NPR1 antag 0%.
For COc1cc2c(cc1CNC(=O)C1CC(=O)N(Cc3cccnc3)C1)CCC2 (stereo unspecified) the results were NPR1 antag 4%.
Screening Cc1cccc(OCCc2noc(C3CCCCN3C(=O)c3ccc(C)nc3)n2)c1 (stereo unspecified) returned NPR1 antag 0%.
`CCc1ccccc1S(=O)(=O)N1CCC(n2cnnc2C(C)C)CC1` gave NPR1 antag 3%.
CCC(=O)Nc1ccc(-c2nnc3n2CCCC3)cc1 was read as NPR1 antag -1%.
For CC(C)c1noc(-c2cn(C3CCN(C(=O)Cc4ccc(Br)cc4)C3)nn2)n1 (stereo unspecified) the results were NPR1 antag 0%.
`N#Cc1cccc(NC(=O)COc2ccc(-c3nnc4n3CCCC4)cc2)c1` gave NPR1 antag -11%.
Screening O=c1n(-c2ccncc2)nc2n1CCN(Cc1ccccc1)C2 returned NPR1 antag -27%[70.6 µM].
`N#Cc1ccc(CN2C[C@@H](CO)[C@H](c3ccccn3)C2)cc1` gave NPR1 antag 4%.
Screening COc1nc2c(cc1CNC(=O)CC1CCC(=O)N1)C(=O)N(C1CCCC1)C2 (stereo unspecified) returned NPR1 antag -7%.
`O=C(c1ccncc1)N1CCCC(COc2ccccc2C(=O)N2CCCCC2)C1` (stereo unspecified) gave NPR1 antag -2%.
For O=C(NCCN1CCCCC1)c1ccc(N2CC3CC(C2)[C@H]2CCCC(=O)N2C3)nc1 (stereo partly specified) the results were NPR1 antag 5%.

Next records:
`COCc1nc(CCNC(=O)c2ccc(OC)nc2)no1` gave NPR1 antag -1%.
Screening CC(C)c1nc2c(c(-c3ccc(O)cc3)n1)CN(C(=O)C1CC1)CC2 returned NPR1 antag -1%[70.6 µM].
Screening COCC1CN(C)CC12CCN(C(=O)CCc1ccc(OC)cc1)CC2 (stereo unspecified) returned NPR1 antag -1%.
Cc1cc(C)c(S(=O)(=O)N2CCn3c(nn(CC4CC4)c3=O)C2)cc1C was read as NPR1 antag 1%.
For CC(C)(C)n1ccc(C(=O)N2CCN(c3cccc(Cl)c3)C(=O)C2)c1 the results were NPR1 antag 1%.
Screening Cn1cccc1C(=O)N1CCC2(CC1)CN(C1CCC1)CC2CO (stereo unspecified) returned NPR1 antag -6%.
Screening CNC(=O)[C@@H]1C[C@H](n2cc(CNS(=O)(=O)c3cc(C)ccc3F)nn2)CN1 returned NPR1 antag 1%.
`COc1cccc(NC(=O)N[C@H](C)c2onc(-c3ccc(F)cc3)c2C(=O)O)c1` gave NPR1 antag -1%[70.6 µM].
`Cc1ccc(OCC(=O)N2CCC(CCOc3ccc(F)cc3)C2)cc1` (stereo unspecified) gave NPR1 antag -19%.
`Cc1nnnn1-c1cccc(-c2nc(Cc3cccs3)nn2CCO)c1` gave NPR1 antag 2%.

This is a subset; rates above refer to the full screens.
